Beta2AR agonist: human beta-2 adrenergic receptor agonism by FAP. 340,000 tested, 0.43% active. response, % (concentration not given with the values). P07550. Am2.2-beta2AR cells, FAP receptor internalization, flow cytometry; reference of the scale not given here;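 active = response above a set limit, near 3 SD of response in nonfluorescent compounds, cut at about 42% in these data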;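 also: stock transfer was 100 nL into about 11 µL; a reference agonist was the positive control; negative values mostly stem from fluorescent compounds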
Target sequence (P07550 whole entry, looked up): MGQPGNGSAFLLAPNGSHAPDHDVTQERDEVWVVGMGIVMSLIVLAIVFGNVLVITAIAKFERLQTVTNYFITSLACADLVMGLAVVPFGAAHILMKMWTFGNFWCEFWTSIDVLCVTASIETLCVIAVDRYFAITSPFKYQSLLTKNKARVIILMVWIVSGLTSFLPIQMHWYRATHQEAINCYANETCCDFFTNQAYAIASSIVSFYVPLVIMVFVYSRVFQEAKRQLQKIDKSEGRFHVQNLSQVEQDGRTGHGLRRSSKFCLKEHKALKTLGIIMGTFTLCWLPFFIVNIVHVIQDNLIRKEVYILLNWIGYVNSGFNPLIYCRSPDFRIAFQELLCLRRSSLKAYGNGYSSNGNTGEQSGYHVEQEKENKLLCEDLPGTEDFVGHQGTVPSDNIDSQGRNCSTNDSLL
A1 inh: inhibitors of the anti-apoptotic protein A1, read as caspase activation | MEF A1-2A-BIM cells, Caspase-Glo 3/7 luminescence, 3 h; percent of clofoctol response, vehicle zero | caspase activation, % (test concentration not listed) | 330,000 tested, 0.066% active | AID 2462;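 active = over half of replicate activation scores above 10%, or exactly half above 10 with the replicate mean above 10; inconclusive = replicate mean below 10 yet half the replicates above 10; inactive = over half of replicates below 10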;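 also: wells of about 30 µL received 50 nL stock; many hits fall short of the cut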
LANA-H2B inh: blocks KSHV LANA binding to histone H2A/H2B. Q9QR71. cell-free LANA-H2A/H2B peptide, fluorescence polarization. inhibition, % (concentration not given with the values). 320,000 tested, 0.6% active; in the data active = inhibition mostly above about 10%, no sharp cut-off; inactive = mostly below about 6.7%;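 also: stock transfer was 7.5 nL into about 10 µL; 0% = median of vehicle wells and 100% = median of positive control wells; one replicate is shown; the record names a cut of 25% in any replicate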
RanGTP-Imp inh: disruptors of Ran-importin-beta complex formation – biochemical, FRET, CFP-Ran, YFP-importin-beta, homogeneous, primary screen | AID 2216 | inhibition, % (test concentration not listed) | cell-free CFP-Ran/YFP-importin-beta FRET ratio | 300,000 tested, 1.1% active;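 active = most replicates above 15%; inconclusive = exactly half above 15%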;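 also: 0% = DMSO wells and 100% = Ran loaded with GDP instead of GTP; wells of about 40 µL received 100 nL stock; the first replicate is given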
T cruzi inh: T. cruzi replication inhibition | inhibition, % (test concentration not listed) | T. cruzi beta-gal in NIH3T3, luminescence, 90 h | 300,000 tested, 1.4% active | AID 1885;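 active = mean inhibition across valid replicates above about 55%, limit read from the data; inconclusive = mean below that limit but half or more replicates reach it; inactive = mean below it, under half of replicates reach it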;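 also: signal also drops with host cell toxicity which is not excluded here; 0% = plate median of DMSO wells and 100% = zero luminescence signal; higher percent means less beta-gal luminescence so fewer parasites; stock transfer was 50 nL into about 50 µL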
Calb FLC: affects C. albicans growth with fluconazole. C. albicans CaCi-2 (fluconazole-resistant clinical isolate) + fluconazole, Alamar Blue growth, 48 h. growth inhibition, % (test concentration not listed). 300,000 tested, 0.57% active;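 active = most replicates above 75%; inconclusive = exactly half above 75%; inactive = most below 75%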;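 also: all wells also contain fluconazole at 8 µg/ml as a sub-toxic cotreatment; 0% = median of DMSO wells and 100% = median of geldanamycin control wells; wells of about 8 µL received 7.5 nL stock; the first replicate is given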
Beta cell apopt: blocks beta cell apoptosis | 300,000 tested, 0.8% active | protection from apoptosis, % (test concentration not listed) | INS-1E cytokine-induced death, ATP luminescence, 48 h; percent of positive-control rescue, neutral wells zero;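 active = all replicates at 75% or more, or half of them and the mean; inconclusive = half reach 75% but not the mean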;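 also: 0% = cytokine-treated negative control wells and 100% = positive control rescue; higher means more ATP so stronger rescue from cytokine killing; wells of about 40 µL received 100 nL stock; the first replicate is given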
UCH37 inh: inhibitors of human deubiquitinating enzyme UCH37; 330,000 tested, 0.33% active; Q9Y5K5; purified proteasome/UCH37, Ub-AMC cleavage fluorescence; inhibition, % (test concentration not listed);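 active = mean of two replicates above 20%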;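 also: 0% = compound-free wells with enzyme and 100% = wells lacking proteasome; stock transfer was 100 nL into about 20 µL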
Target sequence (Q9Y5K5 whole entry, looked up): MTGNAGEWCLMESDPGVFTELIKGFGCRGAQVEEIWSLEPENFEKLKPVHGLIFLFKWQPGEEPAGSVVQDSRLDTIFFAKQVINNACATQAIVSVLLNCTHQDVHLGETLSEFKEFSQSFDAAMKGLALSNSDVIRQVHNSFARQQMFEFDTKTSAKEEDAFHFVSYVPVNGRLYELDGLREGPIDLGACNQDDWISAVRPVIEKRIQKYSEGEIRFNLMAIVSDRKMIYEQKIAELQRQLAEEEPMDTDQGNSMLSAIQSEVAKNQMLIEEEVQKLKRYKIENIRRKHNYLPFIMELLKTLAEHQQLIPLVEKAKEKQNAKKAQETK
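Material: Human UCH37 enzyme supplied as purified proteasome complex | Schedule: 30 min compound-proteasome preincubation then 25 min substrate reaction, room temperature | Detection: AMC fluorescence from Ub-AMC cleavage, excitation 355 nm, emission 460 nm | Benchmarks: Wells without proteasome as full block, compound-free enzyme plus substrate as uninhibited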
Numbers without * were called inactive; ? = inconclusive; · = not tested or not shown.

Each structure is followed by: Beta2AR agonist, A1 inh, LANA-H2B inh, RanGTP-Imp inh, T cruzi inh, Calb FLC, Beta cell apopt, UCH37 inh
> O=C1CCCC2(O)C1C(c1cccc(Br)c1)NC(=O)N2Cc1ccccc1 (stereo unspecified)
→ -2, 0.3, -2.7, ·, -9, ·, -5, 0.4
> COc1cc2c(cc1OC)C1(C)N(CC2)C(C(C)=O)=NN1c1ccc(Cl)cc1 (stereo unspecified)
→ -3, -0.3, -1.7, 0.3, 15, -4, 1, -30
> COc1ccccc1N1C(=O)C2C(C(=O)c3ccccc3)=NN(c3ccc(Br)cc3)C2C1=O (stereo unspecified)
→ -43, 0.6, -62, -157, -14, 8, 3, -129
> Cc1ccc(N2CC(C(=O)Nc3nccs3)CC2=O)cc1Cl (stereo unspecified)
→ -13, -1.3, 2.8, 2.5, -27, -15, 35, -0.2
> O=C(NC1CCSC1=O)c1ccc(Cl)cc1 (stereo unspecified)
→ 8, -0.1, 5.1, -1.4, -1, 8, -4, 3.7
> Cc1ccc(CN2CCCNC2=O)cc1
→ 0, -0.4, -0.2, 1.2, -11, ?, 2, -0.6
> O=C(O)c1ccccc1C(=O)NNc1ccc(Cl)cc1Cl
→ 1, -0.2, 0.8, 2.6, -21, -25, -4, 5.0
> COC(=O)C(O)(NC(=O)OCc1ccccc1)C(F)(F)F (stereo unspecified)
→ 13, 0.0, -12, 3.3, -11, 6, -1, 0.8
> COc1ccccc1-c1nc2ccccc2c(=O)n1O
→ 10, 0.0, 0.3, -1.8, 8, 2, 1, -2.2
> O=C(N1CCCCCC1)N1CCN(S(=O)(=O)c2ccccc2)CC1
→ -2, -0.7, -1.6, 4.3, 5, -5, -2, 1.1
> Cc1cc(Nc2cccc([N+](=O)[O-])c2)c2cccc(C)c2n1
→ -5, 0.0, -8.8, 0.8, 43, -11, 13, 7.3
> CCOC(=O)c1c(NC(=S)NCc2ccccc2)sc2c1CCN(C(=O)OCC)C2
→ 1, 0.3, 9.1, 4.1, -7, 2, ·, 9.7
> Cc1cc(C)cc(CC2CC(=O)N(c3ccc(Cl)cn3)C2=O)c1 (stereo unspecified)
→ 0, -1.1, -1.9, 4.9, 9, -4, -8, -2.9
> CC(C)c1nc(CNC(=O)c2cc(COc3c(F)cccc3F)on2)cs1
→ -1, 0.3, -1.8, 4.1, -2, 5, -2, -0.2
> CSc1nc(C(=O)N2CCc3c([nH]c4ccccc34)C2c2ccccn2)cs1 (stereo unspecified)
→ -1, -0.1, -3.8, 0.4, 21, 53, 0, 1.3
> COc1ccc2oc(C(=O)OCC(=O)Nc3ccc(C(=O)N(C)C)cc3)c(C)c2c1
→ -1, -0.9, -3.1, 2.3, 2, 7, -2, -47
> COc1ccc(Cl)cc1S(=O)(=O)N1CCC(C(=O)NCCc2ccccc2)CC1
→ -2, -0.6, -3.1, -1.2, -1, -5, 10, 2.0
> O=C(Cn1cnc([N+](=O)[O-])n1)N/N=C/c1cc(Cl)ccc1O
→ -2, 0.4, -12, -0.6, 27, 21, 38, ·
> O=C(NCCc1ccccc1)C(=O)NC1CCCCC1
→ -1, 0.1, -4.9, -2.9, -6, 16, -7, 3.8
> COC(=O)c1cc(Nc2cc(C)c3ccc(O)cc3n2)cc(C(=O)OC)c1
→ 25, 0.4, -1.6, 2.6, 2, -2, 11, -146
> CCc1cc2cc(C)ccc2nc1SCC(=O)N1CC(=O)Nc2ccccc21
→ -1, 0.4, -2.5, 2.5, 9, -10, 1, 3.2
> CCOc1cc(S(=O)(=O)NCc2ccccc2)c(OCC)cc1-n1cnnn1
→ -2, 1.0, -9.4, ?, 5, 100*, -4, -69
> Cc1cc(C)c(OCC(=O)Nc2nc(-c3ccccn3)cs2)c(C)c1
→ 13, 0.2, -2.7, 4.0, 70*, 1, 1, 5.4
> COc1ccccc1Cn1c(=S)[nH]c2ccccc2c1=O
→ -16, 0.2, -0.2, 0.0, -24, 17, -1, 2.9
> COc1ccc(CNC(=O)N[C@@H](Cc2c[nH]c3ccccc23)C(=O)O)cc1
→ -4, -0.5, -2.6, -1.6, -20, 5, -5, 4.5
> CC(C)N(C(=O)NC(=O)Nc1ccccn1)S(C)(=O)=O
→ -3, 1.2, 1.7, 4.5, -28, -1, 1, -110
> COC(=O)[C@@]12CCCCN1[C@H](c1ccc(-c3ccccc3)c(OC)c1)[C@H]1C(=O)N(C)C(=O)[C@H]12
→ -18, 0.5, -2.8, ·, ·, ·, 1, 0.9
> CCOC(=O)N1CCN(Cc2nc(-c3ccc(OC)cc3)no2)CC1
→ 3, 0.0, -1.7, -2.0, -1, -27, 3, -0.3
> CCCCOc1ccc(CON(C(C)=O)C(C)=O)cc1Cl
→ -4, 0.1, 0.0, 6.4, -7, 3, 5, 2.1
> CC(C)N(N=Nc1ccc([N+](=O)[O-])cc1)C(C)C
→ 2, -0.3, 5.3, 0.1, 2, -16, 3, 4.9
> O=[N+]([O-])c1ccc(CN2CCN(c3ccccc3Cl)CC2)o1
→ 3, -0.2, 1.9, 4.1, 46, 6, -6, 4.4
> C=CCc1ccc(OCCn2cccc2C=O)c(OC)c1
→ 0, 0.1, -6.3, -0.9, 16, -6, 4, 1.0
> COc1cccc(OC)c1-c1nn(-c2ncc(C(F)(F)F)cc2Cl)c(=O)o1
→ -16, -0.3, -9.6, -0.9, -5, 1, -1, 3.4
> CC(C)C(=O)Nc1ccc(NC(=O)c2ccccn2)cn1
→ 5, -0.8, -5.1, -4.8, 2, 0, 1, 2.5
> Cc1c(N=Cc2ccc[nH]2)c(=O)n(-c2ccccc2)n1C
→ 3, -0.5, 1.3, 2.2, -3, -2, -6, 11
> Cc1ccc(S(=O)(=O)N2CCCN(C(=O)c3ccc(-n4cccn4)cc3)CC2)cc1
→ -8, 1.1, -3.7, ·, ·, ·, -8, 0.5
> CC(C)CC(NC(=O)c1ccc(Cl)cc1)C(=O)OCc1cc([N+](=O)[O-])cc2c1OCOC2 (stereo unspecified)
→ -16, -0.7, 6.1, 1.4, -9, 0, -9, 0.7
> CC(=O)NC(=S)Nc1ccc2oc(=O)ccc2c1
→ -1, 0.1, 6.9, 5.8, -6, -1, -3, 3.5
> Nc1cc(S(=O)(=O)Nc2ccc(Cl)cc2)ccc1N1CCOCC1
→ 9, -0.8, 0.3, 2.4, 6, -2, 70, 1.0
> CC(=O)N1CCN(C(=O)c2ccc(C(=O)c3ccccc3)cc2)CC1
→ -34, 0.6, -0.7, -1.3, -11, 0, -3, 0.6
> c1ccc(Cc2noc(CN3CCC(CN4CCOCC4)CC3)n2)cc1
→ 2, 0.2, 5.1, 2.9, -6, 18, 6, 0.4
> O=[N+]([O-])c1ccc2c(c1Nc1ccccc1Cl)=NC1(CCCCC1)N=2
→ 5, 0.0, 2.0, -3.3, -8, -2, -3, 5.8
> Cc1ccc(NC(=O)C2CCC(=O)N2)cc1C (stereo unspecified)
→ 4, -0.5, -1.2, -2.9, -13, 0, -7, 1.6
> Cc1cc(C)cc(N(CC(=O)NCCSc2ccccn2)S(=O)(=O)c2ccccc2)c1
→ -1, 0.1, -2.0, 1.7, 3, 5, -16, 0.7
> Cc1nc(S/C(=C\c2ccc(-c3ccc(C(=O)O)c(Cl)c3)o2)C(=O)O)n[nH]1
→ -1, ·, ·, 0.9, 6, 9, ·, 19
> CCn1nnnc1NC(=O)c1cc(OC)c(OC)c(OC)c1
→ 7, -0.1, -1.8, -1.3, -8, -5, 3, ·
> CC(=O)c1c(C)[nH]c(C(=O)Nc2cc(C)cc(C)c2)c1C
→ 7, 0.0, -0.8, 6.8, 21, 12, 1, 2.0
> S=c1[nH]nc(Cc2c[nH]c3ccccc23)o1
→ -7, -0.9, 1.0, -0.2, 2, 1, -4, 0.7
> Cc1cc(-c2ccc(C(C)C)c(S(=O)(=O)NCc3ccco3)c2)on1
→ 28, 0.6, -1.3, 0.2, 17, 24, -6, 3.1
> COc1ccccc1NC(=S)N1C2CCC1CC(NC(=O)NC13CC4CC(CC(C4)C1)C3)C2 (stereo unspecified)
→ 3, 0.5, 5.7, 2.1, -4, -6, 6, 5.7
> CC1=CCC2C(=O)N(c3cccc(C(=O)Nc4ccccc4Cl)c3)C(=O)C2C1 (stereo unspecified)
→ 1, -0.7, 6.6, -1.9, 3, 15, -2, 5.1
> COc1ccccc1C(=O)Oc1ccc(C(C)(C)C)cc1
→ 24, 0.2, -1.4, 2.5, -12, -18, -1, 4.2
> Cc1ccc(S(=O)(=O)N2CCN(C)CC2)cc1
→ -2, 0.7, 3.3, ?, -7, -5, 5, -1.1
> COc1ccc(CN2CCCC(CO)(Cc3ccc(F)cc3F)C2)cc1 (stereo unspecified)
→ -3, 0.3, 1.0, 1.1, 31, -17, ·, 5.0
> COc1ccccc1NC(=O)C1CCN(c2ncccn2)CC1
→ -3, 0.4, 2.1, -0.9, -8, 16, 0, -0.4
> Cc1ccc(C)c(S(=O)(=O)Nc2ccc(O)cc2)c1
→ 2, 1.0, 4.1, -4.2, -6, -2, -6, 0.3
> COc1cc(OC)cc(C(=O)Nc2cccnc2)c1
→ -6, -0.7, -3.1, 2.8, -21, 7, 1, 1.6
> NC(=O)C1CC(=O)N(c2ccc(OCc3ccc(Cl)cc3Cl)cc2)C1 (stereo unspecified)
→ 0, 0.1, 3.4, ?, -14, -13, 1, 1.5
